Screening results as filed in PubChem.
miR-21 FLuc: miR-21 reporter, rising signal; 340,000 tested, under 10 active; HeLa miR-21 FLuc reporter, luciferase, 48 h; Potency, µM (series often up to 38.3 µM), inactives show at the highest dose reporter change, positive = more light; active = well fitted rising curve with a large enough effect; inconclusive = small, poorly fitted or top-dose-only effect; inactive = no such curve, though single readings can be large or run the other way;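 also: % of control where 0% means no effect; miR-21 action dims this reporter so a rising signal means less miR-21 action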
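Compounds were titrated across several concentrations (up to approximately 40 uM) and incubated 48 hours with HeLa miR-21-FLuc reporter cells (miR-21 target sequence downstream of FLuc, endogenous miR-21). Readout was firefly luciferase luminescence after lytic detection reagent.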
Rango dissoc inh: prevents RanGTP from dissociating the Rango-importin beta complex; Biochemical FRET Rango-importin beta, RanGTP-induced dissociation; Potency, µM (series often up to 46.1 µM), for the others: at the highest dose activity change, negative = inhibition; hit rate 0.071% among 340,000; AID 540253; active means falling FRET ratio curve, often poorly fitted, with flat reads before Ran was added; inconclusive means other falling curves, or compound fluorescence or quenching; inactive means flat or rising ratio curve;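 also: potency is read from the fitted curve at half-maximal effect; % of control where 0% means no effect; nearly all actives have a fitted effect of over 45% in size; -100% = wells without RanGTP and RCC1; the record marks most hits as doubtful in a second field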
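Two FRET readings bracket the reaction: one 5 min after compound meets Rango–importin beta, another 45 min after RanGTP-RCC1 (0.6 uM Ran, 0.2 uM RCC1, 2 mM GTP) is added. Only the second defines inhibition.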
GLA inh pH 4.5: inhibitors of human alpha-galactosidase A at pH 4.5 | purified enzyme, 4-MU-alpha-Gal fluorescence, pH 4.5 | 230,000 tested, under 10 active | P06280 | activity change, negative = inhibition, % at 105 µM; inconclusive = small, poorly fitted or top-dose-only inhibition, or a rising curve; inactive = flat fitted curve, though single readings scatter; no compound was filed as active;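 also: 0% = full activity with enzyme and -100% = basal without enzyme; dose as in the result columns while the protocol names 77 µM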
Rango complex inh: inhibitors of Rango-importin beta complex formation; Q14974; Rango CFP/YFP FRET sensor + importin beta, 45 min; Potency, µM (doses to about 92.2 µM), without a hit: at the top dose inhibition of complex formation; hit rate 0.031% among 340,000; active = rising FRET ratio curve, often small or poorly fitted; inconclusive = mostly compound fluorescence or quenching in the first reads; inactive = flat curves in all reads;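 also: potency is read from the fitted curve at half-maximal effect; 0% = DMSO wells and 100% = buffer wells lacking importin beta; nearly all actives have a fitted effect of over 15% in size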
Target sequence (Q14974 whole entry, looked up): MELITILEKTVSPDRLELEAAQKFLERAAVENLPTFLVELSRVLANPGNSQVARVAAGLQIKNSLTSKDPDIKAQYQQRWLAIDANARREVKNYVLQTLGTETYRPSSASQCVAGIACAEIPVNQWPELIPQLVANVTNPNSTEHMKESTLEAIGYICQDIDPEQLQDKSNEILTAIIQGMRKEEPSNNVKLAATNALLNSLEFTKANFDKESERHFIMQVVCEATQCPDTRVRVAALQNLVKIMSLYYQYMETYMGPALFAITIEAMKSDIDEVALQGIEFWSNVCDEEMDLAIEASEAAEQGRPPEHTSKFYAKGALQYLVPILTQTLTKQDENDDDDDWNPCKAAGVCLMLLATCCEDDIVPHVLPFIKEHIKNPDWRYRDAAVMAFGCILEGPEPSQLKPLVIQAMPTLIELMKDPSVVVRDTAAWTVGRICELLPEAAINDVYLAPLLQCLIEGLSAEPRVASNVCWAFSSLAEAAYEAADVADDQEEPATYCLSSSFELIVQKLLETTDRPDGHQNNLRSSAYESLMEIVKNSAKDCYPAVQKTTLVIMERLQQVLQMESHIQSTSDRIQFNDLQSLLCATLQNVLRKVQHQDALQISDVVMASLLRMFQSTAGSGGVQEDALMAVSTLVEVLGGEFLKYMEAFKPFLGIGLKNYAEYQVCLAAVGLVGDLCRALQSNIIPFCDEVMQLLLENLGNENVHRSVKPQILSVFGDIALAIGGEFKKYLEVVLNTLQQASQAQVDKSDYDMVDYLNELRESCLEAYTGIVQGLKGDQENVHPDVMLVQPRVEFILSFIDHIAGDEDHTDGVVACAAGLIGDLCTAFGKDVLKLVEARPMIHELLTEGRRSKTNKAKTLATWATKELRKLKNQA
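Inhibition scored from the CFP 486 nm/YFP 530 nm FRET ratio 45 min after adding 0.125 microM importin beta to 50 nM Rango biosensor preincubated 5 min with compound (room temperature, PBS with DTT, Tween-20, BSA). No-importin wells as positive control.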
The depositor's hits bear a star; ? = inconclusive; . = no result given; [ ] = another dose, or the depositor's remark. The list is partial, so the mix of outcomes need not match the whole.

SMILES | miR-21 FLuc | Rango dissoc inh | GLA inh pH 4.5 | Rango complex inh
CCn1c(SCC(=O)OC)nc2cc(S(=O)(=O)N3CCOCC3)ccc21 | . | -1% | . | -1.9%
CCN(CC(=O)Nc1c(F)cccc1F)C(=O)c1cc(S(=O)(=O)N(CC)CC)ccc1N1CCCCC1 | 5% | -9% | . | 3.9%
CN1CCN(S(=O)(=O)c2ccc(Cl)s2)CC1 | -2% | 1% | . | -1.6%
CC(=O)Nc1ccc(S(=O)(=O)CCC#N)cc1 | -3% | ? | 9 | ?
COc1ccccc1C(O)(c1ccccc1)C(CN1CCOCC1)c1ccccc1 (stereo not given) | ? | -4% | -4 | 0.0%
CCOc1ccc(C(=O)NNC2CC(=O)N(CCc3ccccc3)C2=O)cc1OC (stereo not given) | -4% | -6% | -2 | ?
CCn1c(C)csc1=NC(=O)c1ccccc1O | -25% | -13% | -4 | 0.8%
Cc1nc(-c2ccccc2)sc1C1(C)CC(c2ccccc2F)=NO1 (stereo not given) | . | 5% | . | 1.7%
COc1ccc(CNCCCO)cc1OC | -7% | 2% | 2 | -4.8%
O=c1c(-c2cnn(-c3ccccc3)c2)coc2cc(O)ccc12 | -37% | 18% | 2 | -1.5%
Nc1nc(CSc2nc3ccccc3[nH]2)nc(N2CCOCC2)n1 | -6% | 17% | 10 | -0.7%
CC1=NN(C(=O)c2ccccc2Cl)C(O)(c2cccnc2)C1 (stereo not given) | -1% | 7% | 1 | -0.7%
C[C@@H](NC(=O)c1nc[nH]c1C(=O)N[C@H](C)c1ccccc1)c1ccccc1 | . | 19% | . | 1.4%
COc1ccc(C(CNC(=O)c2cc(S(=O)(=O)N3CCN(c4ccccc4)CC3)ccc2Cl)N(C)C)cc1 (stereo not given) | . | 3% | . | -3.1%
CCN(CC(=O)Nc1c(F)cccc1F)C(=O)CSc1ccc(F)cc1 | . | 0% | . | -1.9%
COc1ccc(NC(=O)c2csc(Cc3ccc(Cl)cc3)n2)cc1 | 0% | -14% | 3 | 2.6%
C/C(=N\Nc1ccc(Cl)c(C(=O)O)c1)c1ccc[nH]1 | -75% | -4% | -4 | -1.0%
CCCCOC(=O)Cn1c(=N)n(CCC)c2ccccc21 | 0% | 17% | -4 | 0.0%
O=C(COC(=O)c1n[nH]c2ccccc12)NC(=O)NCc1ccco1 | -5% | -6% | -2 | -3.9%
CC(C)CC(=O)Nc1ccc(C(=O)Cn2c(=O)oc3ccccc32)cc1 | -11% | 3% | 7 | -0.6%
COCCOc1cc(Nc2nnc(C(F)(F)F)s2)c(Cl)cc1Cl | 13% | -4% | 9 | -0.1%
Cc1ccc(C)c(C(=O)COC(=O)c2cc([N+](=O)[O-])ccc2NCCO)c1 | -2% | 30% | -11 | -1.0%
Cc1cccc(NS(=O)(=O)c2cccs2)n1 | -1% | 9% | -2 | -4.4%
O=C(C1CCN(S(=O)(=O)c2cnc[nH]2)CC1)N(CCc1ccccc1)Cc1ccccc1 | -7% | -7% | -16[21.1 µM] | -0.1%
CSCCC(NC(=O)c1ccco1)C(=O)OCC(=O)N(Cc1ccccc1)C(C)(C)C (stereo not given) | . | -10% | . | -2.8%
COc1ccccc1C(=O)Nc1nc(-c2ccc(S(=O)(=O)N3CCOCC3)cc2)cs1 | ? | -12% | 1 | 1.0%
C#CC(C)(CC)NC(=O)c1cc(OC)c(OC)c(OC)c1 (stereo not given) | 3% | -9% | 6 | -2.9%
Cc1ccc(C(C)(C)C)cc1S(=O)(=O)N1CC(=O)Nc2ccccc21 | 7% | 0% | . | 5.3%
O=C1c2cccc3cc(Br)cc(c23)C(=O)N1Nc1ccccc1 | -10% | 2% | 8 | -5.8%
CSc1nc(NCc2ccccc2)c2c3c(sc2n1)CN(C)CC3 | -33% | ? | 25 | ?
CC1CCCN(CC(O)COC(c2ccccc2)c2ccccc2)C1 (stereo not given) | 1% | -5% | 1 | -0.6%
O=S(=O)(NCCCCCNS(=O)(=O)c1c(F)cccc1F)c1ccc2c(c1)OCCO2 | . | -3% | . | -1.0%
CCC(c1nnnn1Cc1ccco1)N(Cc1cc2cc(C)cc(C)c2[nH]c1=O)CC1CCCO1 (stereo not given) | -7% | 13% | -5 | ?
CCCc1nc2ccccc2[nH]1 | -4% | 15% | 9 | 0.3%
Cc1cc(C(=O)N2CCc3ccccc3C2)on1 | -9% | 11% | . | -1.1%
COc1cc2cc(CN(Cc3cccs3)C(=S)Nc3ccccc3)c(=O)[nH]c2cc1OC | 8% | 2% | 1 | -1.1%
CCc1ccc(OCC(=O)Nc2ccc(-c3nc4ccccc4o3)c(O)c2)cc1 | -11% | 2% | 7 | -0.1%
CCOC(=O)c1nn(-c2ccc(F)cc2)c(=O)cc1OCC(=O)Nc1cccc(C)c1 | . | -3% | . | 1.0%
COC(=O)N/N=C/c1cn(Cc2ccccc2Cl)c2ccccc12 | -4% | 5% | 3 | -0.2%
O=S(=O)(NCc1ccc2c(c1)OCO2)c1cccc(F)c1 | -7% | -4% | . | -1.0%
CC(C(=O)O)n1nnc2ccccc21 (stereo not given) | -7% | -16% | -14 | 3.6%
COc1ccc2cc(S(=O)(=O)N3CCOCC3)ccc2c1 | -9% | -6% | -3 | 0.6%
Clc1ccccc1Cc1noc(CN2CCCCC2CCc2ccccn2)n1 (stereo not given) | -2% | -6% | 10 | -1.4%
CCOc1ccc(S(=O)(=O)N2CCN=C2Cc2ccccc2)cc1C | 2% | 24% | . | -0.6%
Cc1ccc(-n2nc(C)c(C(=O)Nc3cccc(C(=O)NC4CC4)c3)n2)c(C)c1 | . | -3% | . | -1.6%
CC(=O)Nc1cccc(NC(=O)c2ccco2)c1 | 0% | -6% | -9 | -5.9%
N#Cc1ccccc1OCC(=O)Nc1cc(S(=O)(=O)N2CCCCC2)ccc1N1CCOCC1 | . | -15% | . | ?
CC(=O)C1=C(C)Nc2ncnn2C1c1ccccc1Cl (stereo not given) | -4% | 11% | -3 | -1.3%
O=C(c1cc2ccccc2o1)N1CCN(S(=O)(=O)c2c(F)cccc2F)CC1 | . | 1% | . | 0.4%
CN(C)S(=O)(=O)c1ccc(NC(=O)/C=C/c2ccccc2Cl)cc1 | -8% | -3% | 2 | 1.2%
O=C(CC1C(=O)NCCN1Cc1cccc(F)c1)NC1CCC1 (stereo not given) | 1% | 2% | . | -3.6%
CC(Sc1nnc(N)s1)C(=O)NNC(=O)c1cccc(Cl)c1 (stereo not given) | . | 11% | . | 0.1%
CN1CCC(=O)N([C@H](CSc2ccc(Br)cc2)c2ccccc2)CC1 | -58% | 4% | -6 | 0.2%
C=C(C)[C@@H]1CC=C(CO)CC1 | . | 4% | . | -1.3%
Cc1ccccc1Nc1nc(N)nc(-c2oc3ccccc3c2C)n1 | -67% | -2% | -4 | 3.5%
C=CCNC(=S)N(Cc1ccccc1)Cc1ccccc1 | 4% | 0% | 0 | 2.8%
CCc1ccc(Nc2ccc(C(N)=O)cc2[N+](=O)[O-])cc1 | -5% | 1% | -5 | 3.0%
CCOc1ccc(S(=O)(=O)NCc2ccccn2)cc1NC(=O)c1ccccc1 | . | 12% | . | -1.6%
O=C1c2ccccc2NC(c2ccc(O)cc2)N1/N=C/c1ccc(O)cc1 (stereo not given) | -47% | -12% | 0 | -13%
Cn1c(COc2ccc(C(=O)O)cc2)nc2ccccc21 | -3% | 6% | . | -0.5%

Five entries from above, with values ahead of the structure.
| miR-21 FLuc | Rango dissoc inh | GLA inh pH 4.5 | Rango complex inh | canonical_smiles |
| --- | --- | --- | --- | --- |
| . | 4% | . | -1.3% | C=C(C)[C@@H]1CC=C(CO)CC1 |
| -67% | -2% | -4 | 3.5% | Cc1ccccc1Nc1nc(N)nc(-c2oc3ccccc3c2C)n1 |
| 4% | 0% | 0 | 2.8% | C=CCNC(=S)N(Cc1ccccc1)Cc1ccccc1 |
| -5% | 1% | -5 | 3.0% | CCc1ccc(Nc2ccc(C(N)=O)cc2[N+](=O)[O-])cc1 |
| . | 12% | . | -1.6% | CCOc1ccc(S(=O)(=O)NCc2ccccn2)cc1NC(=O)c1ccccc1 |

The list continues:
SMILES | miR-21 FLuc | Rango dissoc inh | GLA inh pH 4.5 | Rango complex inh
Cc1cc(OCC(=O)N(C)C)c2c(-c3ccccc3)cc(=O)oc2c1 | -3% | -10% | 0 | -3.4%
COc1cc(/C=C2\SC(=S)N(NS(=O)(=O)c3ccccc3)C2=O)cc(OC)c1OC | 4% | -14% | -6 | -1.3%
CCN(CC(=O)NCc1cccs1)C(=O)CCc1c[nH]c2ccccc12 | -2% | 0% | 5 | -0.8%
COc1cc2c(C(=O)NCc3ccccn3)cn(CC(C)C)c(=O)c2cc1OC | -9% | -17% | 7 | -3.6%
Cc1oc(-c2ccccc2Cl)nc1CN(C)C(C)c1ccon1 (stereo not given) | -19% | 1% | 0 | -0.4%
O=C(Nc1cccnc1)c1ccc(N2CCCC2)c([N+](=O)[O-])c1 | -59% | -1% | 3 | 0.0%
Cc1ccc(N2C(=O)CC(Sc3ccccc3C(=O)O)C2=O)c([N+](=O)[O-])c1 (stereo not given) | -1% | 10% | 0 | 0.3%
CCCSc1nc(C)cc(=O)[nH]1 | -6% | 14% | -1 | -1.8%
O=C(CSc1ncn[nH]1)N1N=C2/C(=C/c3ccco3)CCCC2C1c1ccco1 (stereo not given) | 7% | 8% | -4 | 1.1%
Nc1nnc(SCC(=O)OCC(=O)NC23CC4CC(CC(C4)C2)C3)s1 | -6% | -7% | -2 | ?
COc1ccc(Nc2nc(C)cc(-c3cc(-c4ccccc4)on3)n2)cc1 | . | -3% | . | -0.4%
COc1ccc(C(=O)NC(C)C2CC3CCC2C3)cc1 (stereo not given) | -15% | 25% | . | -2.9%
C/C(=N\Nc1ccc(C)c(Cl)c1)c1ccncc1 | -39% | -9% | . | 0.1%
O=C(N/N=C/c1ccncc1)c1cccc(NC(=O)c2ccccc2Cl)c1 | -9% | 10% | -2 | -0.1%
CCN(CC)S(=O)(=O)c1cccc(C(=O)OCc2cc(=O)n3nc(C)sc3n2)c1 | -4% | 1% | -2 | -2.1%
Cc1ccsc1C(=O)Nc1nccs1 | -30% | -9% | . | -1.2%
CC1CCCCN1CCCNC(=O)C1CCCN(c2ncnc3c2nc2n3CCCCC2)C1 (stereo not given) | 1% | 3% | . | 0.3%
CCc1ccc(-c2nc(CCl)cs2)cc1 | -56% | -4% | 4 | -0.4%
O=C(COC(=O)c1cc(S(=O)(=O)N2CCCCC2)ccc1N1CCOCC1)NC1CCS(=O)(=O)C1 (stereo not given) | -2% | -16% | 3 | 0.5%
N#C/C(=C1\CCCN1)c1ccc2ccccc2n1 | -11% | -10% | 4 | -2.1%
Cc1cc(=O)oc(C)c1C(=O)Nc1cccnc1Cl | 1% | -8% | -5 | -2.8%
Cc1ccccc1NC(=O)CSc1nnc(-c2ccccc2)n1-c1ccccc1 | 5% | -2% | 0 | 0.3%
CCc1ccc(-c2cc(C)no2)cc1S(=O)(=O)N1CCN(c2ccc(F)cc2)CC1 | 25% | 0% | . | -2.9%
CCOC(=O)C1=C(COc2ccccc2)NC(=O)NC1c1ccc(Br)cc1 (stereo not given) | -3% | -6% | . | -4.8%
COc1cccc(C(=O)C2CN(c3ccccc3)CC2c2ccc(Cl)cc2)c1 (stereo not given) | -7% | -10% | -7 | ?
CN(C)Cc1ccccc1Sc1ccc(Br)cc1 | -11% | 0% | -1 | 1.0%
CC1CCN(c2nc3ccccc3nc2N2CCC(C)CC2)CC1 | -2% | . | 10 | .
COc1cc(/C=N/n2cnnc2)ccc1OC(=O)c1ccncc1 | 0% | -15% | -12 | -2.0%
COc1cc(C2Sc3ccccc3NC3=C2C(=O)OC3)cc(OC)c1OC (stereo not given) | 20% | 1% | -8 | 3.6%
CCOc1ccc(S(=O)(=O)n2nnc3ccccc32)cc1C(C)C | -6% | . | -8 | .
CC(=O)Nc1cccc(NC(=O)CSc2ncc(-c3ccccc3)[nH]2)c1 | -2% | 7% | 3 | -0.4%
O=C(O)C1CC2CCC1CC2 (stereo not given) | . | -6% | . | -1.7%
Cc1ccc(S(=O)(=O)N2CCCC(C(=O)NCc3ccc4c(c3)OCO4)C2)cc1 (stereo not given) | -4% | 16% | . | -0.9%
